# Bioassay records as filed in PubChem.
# gsp antagonist: antagonizes gsp, the McCune-Albright syndrome mutation; gsp-mutant cells, cAMP HTRF, 30 min; control for the full effect not named in the record; Potency, µM (highest dose often 76.9 µM), for inactives: at the highest dose activity change, negative = inhibition, actives largely listed as inhibitors; actives 0.4% (n = 340,000); AID 624288; active = falling curve of any shape with a large fitted effect; inconclusive = falling curve, mostly with a smaller effect; inactive = flat or rising curve; cell line not stated here;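 further: intracellular cAMP measured with PDE inhibitor Ro 20-1724 present during compound exposure; potency means the concentration at half of the fitted maximal effect; on the % scale 0 is the no-effect control and ±100 the full control effect; nearly all actives have a fitted effect of over 65% in size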
#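 HTRF cAMP measurement after 30 min RT detection following 30 min, 37C compound treatment alongside […] (added as 300 uM solution) in G418-selected cells seeded at 2000/well and grown 16–24 h.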
# ClpP mod: qHTS Assay for Activators of ClpP | purified B. subtilis ClpP, FRET peptide cleavage, 20 min | Potency, µM (top dose mostly 57.5 µM), inactives show at the highest dose activity change, negative = active | actives 1.9% (n = 340,000); active = well fitted falling curve with a large enough effect; inconclusive = small, poorly fitted or top-dose-only effect; inactive = no such curve, though single readings can be large or run the other way; further: potency means the concentration at half of the fitted maximal effect; the source files actives as falling curves though it sought activators and does not explain the sign; nearly all actives have a fitted effect of over 65% in size; many hits overshoot -100%
# Target sequence (P80244 whole entry, looked up): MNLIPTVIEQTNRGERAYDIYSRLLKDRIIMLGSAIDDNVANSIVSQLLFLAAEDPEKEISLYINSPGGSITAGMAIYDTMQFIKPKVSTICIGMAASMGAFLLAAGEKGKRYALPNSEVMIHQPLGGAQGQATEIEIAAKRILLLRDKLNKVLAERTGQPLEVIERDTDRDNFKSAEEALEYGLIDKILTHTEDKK
#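 ClpP 10 microg/mL final, pH 8 Tris/KCl buffer with BSA, glycerol, Tween-20; compound pinned in; FRET-FV substrate; RT 20 min; Ex320/Em430; ΔFRET vs ADEP 5.8 microM, DMSO, no enzyme.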
# Sfp inh: inhibitors of Bacillus subtilis Sfp phosphopantetheinyl transferase. Potency, µM, without a hit: max response, negative = inhibition, hits mostly inhibitors. Biochemical Sfp PPTase activity, qHTS. actives 3.5% (n = 310,000); active means well fitted inhibition curve with a large enough effect; inconclusive means small, poorly fitted or top-dose-only effect, or another doubt; inactive means no such curve, though single readings can be large or run the other way;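 further: the enzyme is Sfp with the accession as filed and its product quenches rhodamine fluorescence; potency means the concentration at half of the fitted maximal effect; 0% = enzyme reaction without inhibitor and -100% = no enzyme wells; top concentration of the series not given in the record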
#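 Buffer: 50 mM Hepes-Na pH 7.6, 10 mM MgCl2, 0.01% Nonidet P-40, 0.01% BSA. Enzyme 15 nM, pre-exposed to compound 15 min; substrates then added and fluorescence change tracked over 30 min.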
# TRPML1 inh: human mucolipin-1 channel inhibition. TRPML1-inducible cells, Ca2+ dye fluorescence, FDSS; stronger effect = lower value; inhibition of EC80 agonist-evoked calcium signal. activity change, negative = inhibition, % (no concentration beside the values). Q9GZU1. actives 0.02% (n = 390,000); in the data active means activity change below about -50%; inconclusive means about -30% to -50%; inactive means above about -30%;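 further: stimulus is agonist 54-4 at its EC80 concentration; on the % scale 0 is the no-effect control and ±100 the full control effect; compound concentration not given in the record; the text of the record puts the active cut at -80%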
# Target sequence (Q9GZU1 whole entry, looked up): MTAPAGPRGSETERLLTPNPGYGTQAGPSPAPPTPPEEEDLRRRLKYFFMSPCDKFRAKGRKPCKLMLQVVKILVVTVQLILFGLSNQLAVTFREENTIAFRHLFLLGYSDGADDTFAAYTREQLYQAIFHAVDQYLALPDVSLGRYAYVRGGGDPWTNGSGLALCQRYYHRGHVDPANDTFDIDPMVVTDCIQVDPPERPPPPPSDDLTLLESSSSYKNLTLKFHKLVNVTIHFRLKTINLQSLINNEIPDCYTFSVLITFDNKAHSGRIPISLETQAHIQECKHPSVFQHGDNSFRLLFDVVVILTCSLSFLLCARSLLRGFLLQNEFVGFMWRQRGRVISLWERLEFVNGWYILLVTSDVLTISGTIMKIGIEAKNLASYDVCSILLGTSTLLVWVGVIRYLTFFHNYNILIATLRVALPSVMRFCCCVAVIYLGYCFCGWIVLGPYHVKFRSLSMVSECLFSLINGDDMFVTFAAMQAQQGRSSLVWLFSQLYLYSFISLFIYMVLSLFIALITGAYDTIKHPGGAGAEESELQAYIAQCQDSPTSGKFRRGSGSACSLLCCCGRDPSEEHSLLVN
#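 Tet-induced TRPML1-DL cells loaded with Ca8 no-wash calcium dye were read kinetically on FDSS. Compound addition was followed by EC80 agonist 54-4 (4 uM final); inhibition was read over 110 s.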
# Menin-MLL FL inh: inhibitors of human menin-MLL interaction, wild-type MLL peptide. Fluorescence polarization, fluorescein-MLL peptide displacement from menin. FP activity change, % at 61.4 µM. AID 1766. 290,000 tested, under 10 active; inconclusive = falling polarisation curve, or a change in total fluorescence; inactive = total fluorescence flat and polarisation flat or rising; no compound was filed as active; the % refers to the polarisation; negative = inhibition;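 further: % of control where 0% means no effect; inhibitors lower the polarisation; unlabelled MLL peptide was the positive control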
# gsp ag: agonists of gsp mutant (McCune-Albright syndrome). gsp mutant cells, cAMP HTRF, 30 min; control for the full effect not named in the record. Potency, µM (series often up to 76.9 µM), inactives show at the top dose activation (cAMP increase), hits mostly activators. actives 0.13% (n = 340,000); active = well fitted activation curve with a large enough effect; inconclusive = small, poorly fitted or top-dose-only effect, or another doubt; inactive = no such curve, though single readings can be large or run the other way; cell line not stated here;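 further: phosphodiesterase inhibitor Ro 20-1724 added with compounds to block cAMP breakdown; potency means the concentration at half of the fitted maximal effect; nearly all actives have a fitted effect of over 60% in size; about a fifth of the inactives were tested at one dose only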
#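 Cells stably selected in G418 were plated at 2000/well, grown 16-24 hr, then given compounds in DMSO with the PDE inhibitor […] (300 uM solution added) for 30 min at 37C; cAMP was read by HTRF.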
# TRPV1 potentiator: potentiators of human vanilloid receptor 1 (TRPV1); actives 0.02% (n = 320,000); Q8NER1; TRPV1-expressing cells, Fluo-8 calcium influx, capsaicin EC20 potentiation; host cell line not named in the record; control for the full effect not named in the record; AID 540277; potentiation, % at 8.33 µM; active means potentiation above 80%; inconclusive means 30% to 80%; inactive means below 30%; further: 0% is about no effect
#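 TRPV1-expressing cells were cultured overnight at 35.5C and loaded with Fluo-8 calcium dye for 40 to 90 min at room temperature. After a 10 s baseline, compound was added and calcium influx was read kinetically for 3 min (ex 480/em 520 nm).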
# * = called active by the depositor; ? = inconclusive; · = not tested or not shown; & = joins results of further samples; [ ] = another dose, or the depositor's remark. Rows are unselected, and some 4.9% of all compounds hit somewhere here.
SMILES,gsp antagonist,ClpP mod,Sfp inh,TRPML1 inh,Menin-MLL FL inh,gsp ag,TRPV1 potentiator
Nc1n[nH]c(-c2cccc([N+](=O)[O-])c2)n1,6%,0.2%,26%,-4,·,-44%,16
Cc1ccc(NC2CCCN(C(=O)c3cccc4nccnc34)C2)cc1C (stereo not given),15%,0.5%,13%,9,·,-3%[15.4 µM],11
O=C(c1c(F)cccc1F)N1CCCC(c2nc(-c3cccs3)no2)C1 (stereo not given),-4%,·,9%,39,4.1,18%,1
COc1cccc(CN(C)CC(=O)Nc2sc3c(c2C#N)CCC3)c1OC,8%,1.0%,-28%,-11,12,0%,1
COC(=O)C1C(=O)C(C(=O)/C=C/c2ccccc2)C(=O)CC1(C)C (stereo not given),-8%,·,-1%,-10,0.9,-2%,15
COc1ccc(NC(=O)CSc2nnc(-c3ccccn3)n2-c2ccccc2)cc1OC,1%,-0.5%,6%,13,-0.9,-4%,6
Cc1cc2c(=O)n(CC(=O)NCC(=O)Nc3ccc(C(C)C)cc3)cnc2s1,-1%,0.4%,13%,-3,-3.2,?,-18
c1ccc(-c2nnn(C34CC5CC(CC(C5)C3)C4)n2)cc1,4%,-0.7%,1%,59,5.6,-5%,-17
CC12CC3CC(C)(C1)CC(C(=O)NC(=S)N1CCOCC1)(C3)C2,5%,0.4%,-3%,2,43[activator],0%,-13
O=C(Nc1ccccc1C(=O)NCc1ccco1)Nc1cccc2ccccc12,?,-24%,-17%,5,?,23%,11
CCOC(=O)[C@H]1[C@H]2COc3ccc(Cl)cc3[C@H]2N2C(=O)CNC(=O)[C@@]12C,-9%,0.7%,·,11,·,-6%,·
Cn1c(=N)n(CC(=O)c2ccc(F)cc2)c2ccccc21,9%,-1.3%,11%,43,4.9,0%[15.4 µM],1
O=C(NNC(=O)c1ccc(-c2ccc([N+](=O)[O-])cc2)o1)c1ccncc1,?,3.0%,·,-6,·,1%,18
COc1ccccc1NC(=O)c1ccccc1Nc1ccccc1,-4%,1.1%,-8%,4,-1.0,-14%[15.4 µM],-2
O=C(NCCCN1CCCC(O)C1)c1cc(COc2ccc(F)cc2F)on1 (stereo not given),6%,-4.5%,12%,-10,2.2,8%[15.4 µM],5
CCn1cnc2cc(NC(=O)c3ccco3)ccc21,9%,-1.7%,6%,-16,0.6,-7%,22
CCCCC1CCC(C(=O)NCC(c2ccco2)N2CCOCC2)CC1 (stereo not given),·,·,-2%,·,-7.1,·,3
CCc1noc(C)c1C(=O)Nc1nnc(CC(C)C)s1,1%,·,·,6,·,-6%[15.4 µM],2
COc1ccc(OC)c(-c2csc(CCn3nc(C)cc3C)n2)c1,-10%,1.0%,6%,6,-3.9,-37%,9
CCN(CC)c1ccc(C=Nc2ccc(OC)c(S(=O)(=O)N3CCOCC3)c2)c(O)c1,0%,-0.6%,·,1,·,21%,-7
CCn1cc(CN2CCC(n3nccc3NC(=O)C(OC)c3ccccc3)CC2)cn1 (stereo not given),13%,1.7%,·,-2,·,8%,·
O=C(Nc1nnc(SCc2ccccc2F)s1)C1=COCCO1,-4%,-2.6%,8%,21,3.9,-58%[inhibitor],10
COc1cc(NC(=O)Cc2cccs2)ccc1-n1cnnn1,2%,-0.6%,18%,-17,-0.5,26%,-11
CS(=O)(=O)c1ccc2nc(NC(=O)c3cc(-c4ccccc4)nn3-c3ccccc3)sc2c1,-6%,4.3%,10%,0,5.8,3%,8
O=C(CSc1ccccc1F)NCCCN1CCCC1=O,3%,1.0%,·,-4,·,-2%[15.4 µM],-6
Nc1cc(N)nc(SCC(=O)Nc2ccc3c(c2)OCO3)n1,11%,·,5%,-11,-6.1,0%,27
CC(=O)N1c2ccccc2Nc2ccccc21,0%,-1.4%,15%,-24,4.7,-45%,3
O=C(Cn1ncc2c1-c1ccccc1OC2)Nc1nc2ccccc2s1,-21%,-1.1%,-11%,-9,3.2,-42%[inhibitor],·
CC(C)(C)C(=O)CN1C(=O)C2(OCCO2)c2ccccc21,7%,-0.5%,13%,-1,1.4,-25%,-7
CN(C)C=Nc1nonc1N,13%,-0.8%,3%,16,-1.4,-18%,-5

# Compound profiles, as listed above. Order of values: gsp antagonist | ClpP mod | Sfp inh | TRPML1 inh | Menin-MLL FL inh | gsp ag | TRPV1 potentiator
# Listed for `O=C(Cn1ncc2c1-c1ccccc1OC2)Nc1nc2ccccc2s1` = -21% | -1.1% | -11% | -9 | 3.2 | -42%[inhibitor] | ·
# Listed for `Nc1cc(N)nc(SCC(=O)Nc2ccc3c(c2)OCO3)n1` = 11% | · | 5% | -11 | -6.1 | 0% | 27
# Listed for `O=C(CSc1ccccc1F)NCCCN1CCCC1=O` = 3% | 1.0% | · | -4 | · | -2%[15.4 µM] | -6
# Listed for `CS(=O)(=O)c1ccc2nc(NC(=O)c3cc(-c4ccccc4)nn3-c3ccccc3)sc2c1` = -6% | 4.3% | 10% | 0 | 5.8 | 3% | 8
# Listed for `CCn1cc(CN2CCC(n3nccc3NC(=O)C(OC)c3ccccc3)CC2)cn1` (stereo not given) = 13% | 1.7% | · | -2 | · | 8% | ·

# More entries
SMILES,gsp antagonist,ClpP mod,Sfp inh,TRPML1 inh,Menin-MLL FL inh,gsp ag,TRPV1 potentiator
COc1cc2c(cc1OC)CN(C(=O)/C=C/c1ccc([N+](=O)[O-])cc1)CC2,?,·,-10%,52,-3.1,5%,-13
O=C1CCCN1CN(C(=O)c1ccccc1)c1ccc(F)cc1,4%,3.0%,6%,5,2.7,-1%,4
CC(=O)N1CCOc2cc(S(=O)(=O)Nc3c(C)cccc3C(C)C)c(Cl)cc21,·,-0.5%,·,-24,·,·,-21
CCOc1cc(/C=C(\C#N)C(=O)Nc2ccccn2)ccc1O,-4%,·,6%,9,?,?,-2
CCOc1cc(C2NC(=O)NC(O)(C(F)(F)F)C2C(=O)c2ccc(OC)cc2)ccc1O (stereo not given),0%,1.8%,13%,13,-0.4,45%,0
Cc1cc(N2CCCCC2)nc(N)n1,7%,-2.2%,29%,-10,5.6,20%,-9
O=C(CN1C(=O)NC2(CCCCCC2)C1=O)NCc1ccc(Cl)cc1,3%,0.6%,·,14,·,-1%[15.4 µM],·
O=C(Nc1ccc(S(=O)(=O)Nc2ccccn2)cc1)c1ccc(Cl)cc1Cl,1%,·,2%,8,-1.2,19%[15.4 µM],-18
COc1ccc(CCNS(=O)(=O)c2ccc3oc(C(=O)O)c(C)c3c2)cc1OC,2%,-4.1%,8%,-16,-0.7,0%,-13
CC1(C)CC(=S)Nc2ccccc2S1,2%,0.1%,28µM*,-2,6.8,3%,6
Nc1nonc1-n1nnc(C(=O)N/N=C/c2ccccc2Cl)c1-c1ccccc1,?,·,21%,-2,·,-3%,-2
Cc1ccc(C)c(OCC(=O)Nc2ccc(C(=O)O)cc2NC(=O)COc2cc(C)ccc2C)c1,-31%,2.1%,-20%,4,-1.2,-23%,-4
C1=C(c2ccccc2)Nc2nnnn2C1c1cccs1 (stereo not given),8%,-8.2%,24%,-2,2.1,1%,3
O=C(NC1CCN(Cc2ccc3ccccc3c2)CC1)c1ccccc1,-2%,-1.1%,3%,-4,-2.4,-25%,-6
O=c1oc2ccccc2c2nccnc12,0%,-4.2%,-11%,-12,-0.2,10%,4
CCCCNc1c(-c2ccc(SC3CCCCC3)c(OC)c2)nc2ccc(Cl)cn12,-2%,-15%,·,8,·,27%,-7
C=CCNC(=O)NC(=O)COC(=O)CC(NC(N)=O)c1ccc(Cl)cc1 (stereo not given),16%,0.4%,2%,-13,7.9,7%,12
CCc1cc(=O)oc2c3c(cc(OCC(=O)NCc4ccccn4)c12)OC(C)(C)CC3,0%,5.2%,-5%,·,1.5,·,-20
O=C(COC(=O)CCC(=O)c1ccc(F)cc1)NCc1ccco1,5%,-0.3%,15%,-2,-0.1,-4%,6
O=C(NCCN1CCN(Cc2ccccc2)CC1)Nc1cc(Cl)cc(Cl)c1,-2%,-0.4%,8%,-7,0.0,6%,6
Cc1cc(OCCCCCN2CCCC2)ccc1Cl,12%,-0.6%,-24%,-2,-1.9,20%,5
COC(=O)c1c(C)oc(C)c1S(=O)(=O)NCc1cccs1,9%,-0.5%,10%,-14,0.1,-10%,-3
NS(=O)(=O)c1ccc(CCNC(=O)c2ccc[nH]c2=S)cc1,-19%,-1.6%,56µM*,-9,-0.5,18%[15.4 µM],-4
CN(C)C(=S)Nc1cccc(-c2n[nH]c(=S)o2)c1,0%,-2.3%,-46%,21,4.1,7%[15.4 µM],0
COc1ccc(C2Oc3ccccc3C3=C2C(c2cccs2)n2ncnc2N3)cc1 (stereo not given),11%,1.3%,-1%,-2,8.0,-10%,-36
COc1ccc(CC(=O)Nc2cccc(SC)c2)cc1OC,-12%,·,9%,3,-0.8,33%[15.4 µM],-8
O=C(C1=C[C@@H](c2ccc(C(F)(F)F)cc2)C[C@@H](OCCCCO)O1)N1CCCCCCC1,11µM*,0.0%,·,-1,·,·,·
Cn1c(=O)c2[nH]c(SCCN3CCOCC3)nc2n(C)c1=S,?,·,·,-12,·,27%,·
COCCNC(=O)c1cc(-c2cccnc2)nc2ccc(Br)cc12,8%,-8.4%,25%,3,0.3,?,-2
COc1ccc(NS(=O)(=O)c2ccc(NC(=O)c3cnn4c(C(F)F)cc(-c5ccc(C)cc5)nc34)cc2)cc1,·,·,18%,·,1.8,·,-6
CC(C)(C)NC(=O)C(c1cccs1)N(C(=O)C(=O)NC1CCCC1)c1ccccc1F (stereo not given),11%,-1.5%,13%,-16,-4.3,-23%[15.4 µM],15
COC(=O)CC1C(=O)NCCN1C(=O)CSc1nc2ccccc2o1 (stereo not given),-5%,0.0%,17%,-13,-3.8,18%[15.4 µM],-10
COc1ccccc1N1CCN(Cc2nc(-c3ccc(F)cc3)oc2C)CC1,-2%,-0.3%,-20%,0,5.8,-46%[inhibitor],-5
Cc1ccc(-c2nc3ccc(Cl)cn3c2Cc2ccccc2)cc1,·,-16%,·,21,·,-128%[inhibitor],·
COc1ccc(NC(=O)C2CCCN(c3cnccn3)C2)c(OC)c1 (stereo not given),-2%,-3.2%&-2.1%,15%,-1&1,-6.5,25%,-2
COc1ccc(-c2ccc(SCc3ccccn3)nn2)cc1OC,4%,1.3%,19%,5,?,-1%,-8
